Assay outcomes from PubChem BioAssay.
Six1-Eya2 inh: qHTS Assay for Inhibitors of the Six1/Eya2 Interaction; activity change, % (no concentration beside the values); Homeobox protein SIX1 (Homo sapiens) + Protein phosphatase EYA2 (Homo sapiens), …; AID 651725, 2012; AlphaScreen GST-Six1/His-Eya2 binding, biochemical; hits give low values; control for the full effect not named in the record; 360,000 compounds, 0.56% hits; in the data active = activity change below about -65%; inconclusive = about -30% to -65%; inactive = above about -30%; also: % is scaled to controls: 0 for no effect and ±100 for the full control effect
Target sequence (O00167 whole entry, looked up): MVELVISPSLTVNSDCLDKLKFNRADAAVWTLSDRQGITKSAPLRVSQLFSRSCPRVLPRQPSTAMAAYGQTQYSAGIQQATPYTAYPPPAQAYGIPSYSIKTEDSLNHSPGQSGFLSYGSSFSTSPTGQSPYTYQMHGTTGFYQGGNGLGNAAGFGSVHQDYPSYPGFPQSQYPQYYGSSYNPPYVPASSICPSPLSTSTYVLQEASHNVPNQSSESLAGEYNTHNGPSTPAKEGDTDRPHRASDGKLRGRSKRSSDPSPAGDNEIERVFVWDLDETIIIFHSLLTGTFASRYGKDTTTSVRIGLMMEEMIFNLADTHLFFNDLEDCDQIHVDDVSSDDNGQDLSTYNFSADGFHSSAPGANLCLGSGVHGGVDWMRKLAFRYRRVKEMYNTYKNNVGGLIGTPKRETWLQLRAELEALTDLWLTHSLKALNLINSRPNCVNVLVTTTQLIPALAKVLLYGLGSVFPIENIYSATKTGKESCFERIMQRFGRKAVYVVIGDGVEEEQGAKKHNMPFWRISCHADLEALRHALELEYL
Target sequence (Q15475 whole entry, looked up): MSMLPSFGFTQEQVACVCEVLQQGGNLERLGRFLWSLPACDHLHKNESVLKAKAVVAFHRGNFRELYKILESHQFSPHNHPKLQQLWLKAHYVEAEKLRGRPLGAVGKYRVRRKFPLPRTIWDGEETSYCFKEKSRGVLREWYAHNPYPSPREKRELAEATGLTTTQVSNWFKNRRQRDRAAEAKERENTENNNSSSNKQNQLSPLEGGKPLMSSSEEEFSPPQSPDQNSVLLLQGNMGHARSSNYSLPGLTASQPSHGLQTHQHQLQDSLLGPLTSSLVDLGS
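GST-Six1 + His-Eya2 (5X stock: 250/500 nM); Tris pH 8.0, 300 mM NaCl, 0.05% BSA, 0.02% Tween 20; GSH donor/Ni acceptor beads; 1 h 37 °C dark; AlphaScreen readout.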
D2 ag: Beta-Arrestin HTS for Positive Allosteric Modulators of the Human D2 Dopamine Receptor: Agonists. activation, % (test concentration not listed). DiscoveRx PathHunter D2 beta-arrestin, luminescence, 90 min; 100% = 57 uM dopamine signal. 360,000 compounds, 0.084% hits; in the data active = activation above about 40%; inconclusive = about 15% to 40%; inactive = below about 15%; also: compound concentration not given in the record; the text of the record calls up to 30% inactive
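DiscoveRx PathHunter D2 beta-arrestin cells (2,100/well) attached overnight, then compound-stimulated 90 min at 37 C in HBSS/10 mM HEPES/0.1% Tween-20 buffer; beta-galactosidase complementation read by luminescence after 1 h at ambient temperature. Dopamine 57 uM final (EC100) as control.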
PINK1 expr mod: A Quantitative High throughput Screen to Identify Chemical Modulators of PINK1 Expression. AID 624263, 2012. 410,000 compounds, 0.2% hits. PINK1 immunofluorescence, high-content cytometry, 24 h. Potency, µM (series often up to 76.6 µM), for the others: at the highest dose activation (PINK1 increase), actives largely listed as activators; active = well fitted activation curve with a large enough effect; inconclusive = small, poorly fitted or top-dose-only effect; inactive = flat fitted curve, though single readings scatter; cell line not stated here;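 also: potency is read from the fitted curve at half-maximal effect; % of control where 0% means no effect; nearly all actives have a fitted effect of over 65% in size; a mitochondrial uncoupler was the plate control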
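PINK1 protein level read as immunofluorescence by microplate cytometer in a fixed, stained stable cell line after 24 h exposure to five compound concentrations, with CCCP as control.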
CtBP-E1A blk: qHTS Assay for Inhibitors of the CtBP/E1A Interaction; CtBP / adenovirus E1A interaction (AlphaScreen); AlphaScreen GST-E1A/His-CtBP binding, 1536-well; hits give low values; control for the full effect not named in the record; activity change, % (no concentration beside the values); 340,000 compounds, 0.49% hits; AID 651724, 2012; in the data active means activity change below about -65%; inconclusive means about -30% to -65%; inactive means above about -30%; also: % is scaled to controls: 0 for no effect and ±100 for the full control effect
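In 5 uL wells, 23 nL compound meets equimolar GST-E1A and His-CtBP (5X stock 125 nM each) for 2 h, 37 °C. Beads (5X, 50 ug/mL) then 1 h, 37 °C, dark.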
TRPV1 potentiator: HTS Assay for Compounds that Act as Potentiators of the Vanilloid Receptor 1; TRPV1-expressing cells, Fluo-8 calcium influx, capsaicin EC20 potentiation; host cell line not named in the record; control for the full effect not named in the record; AID 540277, 2011; potentiation, % at 8.33 µM; 320,000 compounds, 0.02% hits; active means potentiation above 80%; inconclusive means 30% to 80%; inactive means below 30%; also: 0% is about no effect
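TRPV1-expressing cells were cultured overnight at 35.5C and loaded with Fluo-8 calcium dye for 40 to 90 min at room temperature. After a 10 s baseline, compound was added and calcium influx was read kinetically for 3 min (ex 480/em 520 nm).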
Sfp inh: qHTS Assay for Inhibitors of Bacillus subtilis Sfp phosphopantetheinyl transferase (PPTase); Biochemical Sfp PPTase activity, qHTS; Potency, µM, for inactives: max response, negative = inhibition, hits mostly inhibitors; 310,000 compounds, 3.5% hits; AID 1490, 2009; active = well fitted inhibition curve with a large enough effect; inconclusive = small, poorly fitted or top-dose-only effect, or another doubt; inactive = no such curve, though single readings can be large or run the other way;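 also: the enzyme is Sfp with the accession as filed and its product quenches rhodamine fluorescence; potency is read from the fitted curve at half-maximal effect; 0% = enzyme reaction without inhibitor and -100% = no enzyme wells; top concentration of the series not given in the record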
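After 15 min at room temperature with compound, 15 nM Sfp received 5 uM rhodamine-CoA plus 12.5 uM BHQ-2-ybbR (50 mM Hepes pH 7.6, 10 mM MgCl2). Rate came from the fluorescence difference over 30 min, ex 525/em 598 nm.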
D2 PAM: Beta-Arrestin HTS for Positive Allosteric Modulators of the Human D2 Dopamine Receptor: Potentiators; D(2) dopamine receptor (Homo sapiens), P14416; DiscoveRx D2 beta-arrestin cells, luminescence, 90 min; 100% = 57 uM dopamine signal; potentiation, % (concentration not given with the values); 360,000 compounds, 0.23% hits; AID 624464, 2012; active = potentiation of 50% or more; inconclusive = 30% to 50%; inactive = 30% or less;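 also: tested on top of an EC20 dose of dopamine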
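D2 cells co-treated with compound plus 50 nM dopamine (EC20) for 90 min at 37 deg C to detect potentiation. Beta-arrestin recruitment was read as enzyme-fragment luminescence after 1 h at ambient temperature. Full response was set by 57 uM dopamine.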
* hit, by the source's call; ? = inconclusive; / = no result given; [ ] = dose if it differs, or a comment.

SMILES | Six1-Eya2 inh | D2 ag | PINK1 expr mod | CtBP-E1A blk | TRPV1 potentiator | Sfp inh | D2 PAM
COc1ccc(C2C(C(=O)Nc3cccnc3)=C(C)Nc3nc(-c4cccs4)nn32)cc1OC (stereo not drawn) | 3.0 | -0.3 | 2.5% | 4.0 | -14.7 | -3.6% | 0.4
CCN(CC)C(=O)CSc1nc2c(sc(=S)n2-c2ccccc2)c(=O)[nH]1 | 3.8 | -0.2 | 1.8% | -2.6 | -22.6 | -3.2% | -2.3
Cc1ccc(S(=O)(=O)N2CCN(C(=O)c3ccc(N4CCC(C)CC4)c([N+](=O)[O-])c3)CC2)cc1 | -25.9 | -1.1 | 1.3% | -18.9 | / | / | -12.2
O=C(NNC(=S)Nc1ccc(F)c(Cl)c1)c1ccccc1Br | -1.4 | -9.7 | 4.5% | -22.6 | -1.0 | 56.2µM* | -11.9
O=C1[C@@H]2Cc3ccccc3CN2C(=O)N1c1cccc(F)c1 | 0.5 | 1.3 | -0.2%[38.3 µM] | 9.4 | -14.2 | -0.4% | -2.0
C/C(=N\NS(C)(=O)=O)c1ccccc1 | 12.5 | 1.0 | -0.6% | 5.3 | -4.8 | 3.3% | -4.3
COc1ccc(OC)c(Nc2nc(NCCO)c3ccccc3n2)c1 | -17.7 | -3.9 | 2.5% | -12.1 | -9.8 | -19.6% | -7.0
O=[N+]([O-])c1ccn(-c2nc(-c3ccccc3)cc(C(F)(F)F)n2)n1 | -27.6 | -4.4 | 4.3% | -22.5 | -6.1 | 7.9% | 4.4
CN1C(=O)/C(=C/c2ccc3c(c2)OCO3)N=C1c1ccccc1 | 1.7 | -4.5 | 0.1% | 8.2 | -19.4 | -6.7% | -26.9
COc1ccc(CN(Cc2cc3cccc(C)c3n3nnnc23)C(=O)N2CCOCC2)cc1 | -5.2 | -7.0 | 2.2% | / | -11.8 | 9.8% | -3.5
CC(=O)c1ccc(NS(=O)(=O)c2ccc3c(c2)N(C(C)=O)CCO3)cc1 | -17.8 | 1.2 | 1.2% | / | 6.1 | 13.3% | -10.9
Cc1ccc(-c2nnc(SCC(=O)CC(=O)Nc3ccccc3)n2C)cc1 | 0.0 | -1.4 | -2.2% | 1.9 | 8.3 | 27.9% | -10.7
C=CCNC(=S)NNC(=O)c1ccc(Br)cc1 | -3.9 | -4.2 | -2.6% | -3.1 | 7.8 | 16.2% | -6.8
NNc1nc2sc3c(c2c(=O)n1-c1ccccc1)CCCC3 | -5.8 | -5.5 | 4.2% | 0.0 | -1.4 | 3.7% | -30.9
O=C1Cc2cc(S(=O)(=O)N3CCN(c4cccc(Cl)c4)CC3)ccc2N1 | 2.2 | -1.1 | ? | 0.0 | -11.7 | 10.9% | -7.1
COc1ccc(S(=O)(=O)c2c(O)c3ccc(C(=O)Nc4cccc(F)c4)cc3[nH]c2=O)cc1 | -65.8* | 1.1 | -0.1% | / | 6.9 | 29.4% | -7.5
CN(CCc1ccccn1)C(=S)NC(=O)c1ccco1 | 3.5 | -7.1 | -0.9% | 15.5 | -5.2 | ? | -0.2
Cc1ccc(COC(=O)c2ccc3ccccc3n2)cc1 | 5.0 | 5.8 | 0.0% | 17.9 | 14.4 | 3.7% | 3.6
CCN(CC)S(=O)(=O)c1ccc(C(C)NCC(=O)Nc2ccccc2C(=O)NC2CC2)cc1 (stereo not drawn) | 13.9 | -1.1 | ? | -3.9 | -0.6 | / | 27.0
O=C1C(Cl)=C(Nc2ccc(O)cc2)C(=O)c2ccccc21 | -0.5 | 7.1 | -1.9% | -15.6 | -15.0 | -22.1% | 26.9
CCOC(=O)NC(Nc1nc2ccccc2s1)(C(=O)OCC)C(F)(F)F (stereo not drawn) | 0.0 | -3.5 | 5.9%[38.3 µM] | 0.8 | -1.9 | 15.2% | -12.8
Cc1cccc(C)c1OCCOC(=O)c1cccc(S(=O)(=O)N2CCOCC2)c1 | 6.1 | -0.6 | 2.3% | -5.6 | -12.2 | / | -2.9
Cc1cc(C)cc(OCC(=O)Nc2ccc(N3CCOCC3)cc2N2CCOCC2)c1 | 0.0 | 3.1 | 0.1% | -14.5 | -20.6 | / | -6.9
COc1ccc(Br)cc1CN1CCN(Cc2c[nH]c3ccccc23)CC1 | -12.7 | -2.8 | -0.5% | 6.2 | 6.9 | ? | -15.1
COc1cccc(NC(=O)Nc2ccc3c(c2)OCO3)c1 | -6.5 | 0.4 | -0.8% | -7.1 | -6.3 | -1.2% | -8.3
O=C(Nc1ccc(C(=O)N2CCOCC2)cc1)c1cccc([N+](=O)[O-])c1 | 13.2 | -3.1 | -0.6% | 1.1 | 1.5 | 16.0% | 1.8
Cc1cc(C)c(C(=O)COC(=O)C2CCN(c3ccc(C(F)(F)F)cn3)CC2)cc1C | 27.8 | -0.3 | -1.3% | -16.5 | 7.0 | / | -2.1
O=C(CSC1=NNC(c2ccccn2)S1)Nc1ccc(C(F)(F)F)cc1 (stereo not drawn) | -90.7* | 10.7 | 3.4% | -95.2* | 4.7 | 10.0% | -5.5
O=C(NCC1CC1)C1Cc2c(-c3ccc4c(c3)OCO4)ccnc2O1 (stereo not drawn) | 0.6 | 3.3 | 4.5% | 1.3 | / | / | -6.0
CCS(=O)(=O)Nc1cc2c3c(c1)CCN3C(=O)CC2 | -4.9 | -2.5 | -1.3% | / | 15.0 | 2.0% | -0.3
O=C(CSc1ccc(-c2ccco2)nn1)Nc1cccc(F)c1 | -15.0 | 1.1 | 1.7% | -0.3 | 2.9 | 15.8µM* | -6.2
COc1ccc(C2(c3ccc(OC)cc3)NC(=O)N(CC(=O)NCC(F)(F)F)C2=O)cc1 | -6.7 | -0.7 | 1.4% | 0.0 | -12.0 | 7.0% | -5.4
Cc1ccc(S(=O)(=O)Nc2c(O)ccc3ccccc23)cc1 | -8.7 | 56.4* | 0.0% | -4.1 | / | / | 7.7
O=C(NCCc1cn2ccsc2n1)C1CCCCC1 | 2.3 | -3.9 | 1.0% | 1.9 | -6.5 | 7.5% | -6.0
O=c1cc(-c2ccc(O)c(O)c2)oc2c(C3O[C@H](CO)[C@@H](O)[C@H](O)[C@H]3O)c(O)cc(O)c12 (stereo partly drawn) | ? | -2.6 | 0.8% | / | 2.8 | -27.5% | 2.2
Cc1cccc(C)c1NC(=O)C(NC=O)c1ccc(N(C)C)cc1 (stereo not drawn) | -4.3 | -1.3 | 5.2% | 5.0 | -0.9 | 14.5% | -11.3
COc1cc(C)c(CN2CCC(Oc3ccc(C(=O)N4CCCC4)cc3)CC2)cc1C | 1.3 | -5.2 | 0.7% | -2.8 | 21.0 | 7.8% | -21.8
Cc1ccc(/C=N\NC(=O)Cn2c(C)nc3ccccc32)o1 | -2.5 | -1.4 | -2.3% | -0.1 | 11.1 | 4.8% | 3.7
O=C(NCc1ccccc1CN1CCCC1)C1CCN(S(=O)(=O)c2ccc(Cl)cc2)CC1 | -2.9 | 1.7 | -1.6% | 5.8 | 1.5 | / | -1.9
CCCC(=O)NC(c1ccccc1)c1c(O)ccc2ccccc12 (stereo not drawn) | 3.2 | -1.2 | ? | / | 0.4 | -5.9% | 1.0
CC(=O)c1c(N2CCC(C(N)=O)CC2)nc(=S)n(-c2ccccc2)c1C | -2.9 | -1.7 | 4.4% | 4.4 | 12.6 | -7.5% | -9.1
COc1ccc(-n2nc(C(=O)NCC(=O)NC3CCCC(C)C3C)c3ccccc3c2=O)c(OC)c1 (stereo not drawn) | 14.2 | -1.8 | 11.0% | 24.3 | 1.3 | -0.2% | -3.3
O=S1(=O)CCOCCCN1Cc1ccccc1Br | -3.8 | -4.4 | 5.9% | 3.5 | -6.3 | 13.8% | 0.1
COc1ccccc1/C=C1\Cc2ccccc2C1=O | 0.0 | -3.7 | -0.9% | / | 11.6 | -21.3% | -41.3
COc1ccc(-c2noc3c2-c2nc(-c4ccc(Br)cc4)sc2CC3)cc1 | 6.1 | -0.2 | -0.2% | 5.3 | / | / | -5.1
CC(C)N1CCN(Cc2cccc(-n3cccn3)c2)CC1CCO (stereo not drawn) | 2.1 | -0.8 | 0.7% | 1.1 | -13.1 | 7.3% | -12.8
Cn1nc(C(=O)Nc2ccc3c(c2)OCCO3)cc1C(=O)O | 1.1 | 4.9 | 2.0% | / | 3.4 | 10.1% | -3.1
CCCn1nnc(NC(=O)c2ccc3ccccc3c2)n1 | 6.0 | -2.8 | 1.7% | -0.5 | -12.0 | 3.9% | -7.8
COc1ccc(CNC(=O)COC(=O)C2(C)CC2(Cl)Cl)cc1 (stereo not drawn) | 3.6 | 3.1 | -0.1% | -13.2 | / | / | -0.7
CCOC(=O)c1cnc2c(N=Nc3ccccc3)c(N)nn2c1N | -1.6 | -1.3 | 19.3% | -3.0 | -0.6 | 11.1% | -13.1

Remaining list, next part:
SMILES | Six1-Eya2 inh | D2 ag | PINK1 expr mod | CtBP-E1A blk | TRPV1 potentiator | Sfp inh | D2 PAM
Cc1cccc(NC(=O)CCN2CCC(C)CC2)c1 | 0.9 | 0.9 | 0.5% | -2.2 | -21.5 | 5.5% | -14.7
O=C1NC(c2ccccc2)=C(c2ccc3ccccc3n2)C(c2ccccc2)N1 (stereo not drawn) | -8.7 | 1.5 | 4.2% | -3.6 | 8.7 | -20.4% | -0.9
CCCCNC(=O)c1cc2cccc([N+](=O)[O-])c2[nH]1 | -13.5 | -1.1 | -1.2% | -4.9 | -16.0 | -20.1% | -21.2
COc1cc(/C=C/C(=O)Nc2ccncc2)cc(OC)c1OC | 5.1 | 2.9 | 1.8% | 3.6 | -6.7 | 10.8% | -5.2
Cc1cc(C)n(C(=O)CSc2ccc(Cl)cc2)n1 | 2.8 | 2.2 | / | 8.7 | 7.7 | 10.4% | 3.8
Cc1cccc(Nc2nc(N)nc(CN3CCN(Cc4ccc5c(c4)OCO5)CC3)n2)c1 | -7.8 | -3.0 | 3.3%[38.3 µM] | -10.8 | -21.5 | 3.3% | -10.4

Random draw from the library. Share with any hit: about 3.7%.
